# SARS PLP yeast – inhibitors of SARS-CoV papain-like protease in yeast | 330,000 tested, 0.19% active | S. cerevisiae expressing SARS-CoV PLpro, growth rescue; control for the full effect not named in the record | Potency, µM (titrated, usually from 32.9 µM), without a hit: top-dose activity, positive = growth rescue; active means well fitted rising curve with a large enough effect; inconclusive means small, poorly fitted or top-dose-only effect; inactive means no such curve, though single readings can be large or run the other way; note: 0% is about no effect; nearly all actives have a fitted effect of over 55% in size; growth read by luminescence after 48 h
# NS1 inh – influenza NS1 inhibition | S. cerevisiae slowed by influenza A NS1, growth recovery by OD600 | AID 2326 | Potency, µM (series often up to 46.1 µM), for the others: at the highest dose activity, positive = more growth | 270,000 tested, 0.4% active; active means well fitted rising curve with a large enough effect; inconclusive means small, poorly fitted or top-dose-only effect; inactive means no such curve, though single readings can be large or run the other way; note: nearly all actives have a fitted effect of over 50% in size
#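 OD600 was taken as the measure of yeast growth restored by compound in an NS1-expressing S. cerevisiae strain. Cells had been washed out of glucose medium and diluted 1:100 into galactose -URA medium, pH 6.0.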
# Cruzain noTriton – cruzain (T. cruzi) inhibition without detergent | P25779 | purified cruzain, Z-FR-AMC fluorescence, no detergent | Potency, µM, without a hit: max response, negative = inhibition, most hits filed as inhibitors | 200,000 tested, 2.3% active | AID 1476;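 note: plate controls were enzyme without inhibitor for no effect and buffer without enzyme for full effect; nearly all actives have a fitted effect of over 40% in size; top concentration of the series not given in the record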
# Target sequence (P25779 123-467 limits assumed): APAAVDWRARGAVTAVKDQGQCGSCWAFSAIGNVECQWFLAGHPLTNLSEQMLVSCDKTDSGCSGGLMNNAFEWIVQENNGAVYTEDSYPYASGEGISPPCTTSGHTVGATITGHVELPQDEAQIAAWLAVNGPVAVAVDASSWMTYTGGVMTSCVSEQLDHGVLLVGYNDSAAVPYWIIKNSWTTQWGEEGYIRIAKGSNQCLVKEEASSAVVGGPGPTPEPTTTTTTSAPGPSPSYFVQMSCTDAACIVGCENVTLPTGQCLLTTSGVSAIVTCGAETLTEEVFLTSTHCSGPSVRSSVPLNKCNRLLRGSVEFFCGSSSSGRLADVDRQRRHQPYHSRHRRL
#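 Detergent-free condition (0.00005% Triton X-100) in acetate buffer pH 5.5 with DTT. 1.5 nM enzyme and compound were pre-mixed 15 min, then 2 uM Z-FR-AMC substrate added; reaction progress from fluorescence change between first and third reads (60 s).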
# Cruzain Triton – blocks cruzain activity in presence of Triton detergent; P25779; purified cruzain, Z-FR-AMC fluorescence, 0.01% Triton; Potency, µM, for the others: max response, negative = inhibition, most hits filed as inhibitors; 200,000 tested, 0.43% active; AID 1478;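 note: plate controls were neutral wells for no effect and buffer without enzyme for full effect; nearly all actives have a fitted effect of over 40% in size; top concentration of the series not given in the record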
#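 Cruzain (1.5 nM) preincubated 15 min at RT with compound in 100 mM sodium acetate pH 5.5, 5 mM DTT, 0.01% Triton X-100. Reaction started with 2 uM Z-FR-AMC; AMC fluorescence (ex 360/em 450 nm) change over 60 s gave rate.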
# Lassa entry inh – inhibitors of Lassa virus binding or cell entry; Lassa virus pseudotype entry inhibition, cell reporter; control for the full effect not named in the record; Potency, µM (top dose mostly 37.9 µM), for the others: top-dose activity change, negative = inhibition, most hits filed as inhibitors; 300,000 tested, 1.2% active; AID 540256; active means well fitted inhibition curve with a large enough effect; inconclusive means small, poorly fitted or top-dose-only effect, or effect the other way; inactive means flat fitted curve, though single readings scatter; tested in HEK293 cells; note: % is set by controls: 0 for no effect and ±100 for the full control effect; nearly all actives have a fitted effect of over 50% in size; luciferase read-out
# 2A StopGo – lowers the luciferase signal of an FMDV 2A StopGo reporter | human cells with a luciferase reporter of 2A StopGo recoding; control for the full effect not named in the record | Potency, µM (highest dose often 57.9 µM), without a hit: at the highest dose signal change, negative = less light | 410,000 tested, 1.2% active; active = well fitted falling curve with a large enough effect; inconclusive = small, poorly fitted or top-dose-only effect; inactive = no such curve, though single readings can be large or run the other way; tested in HEK293T cells; note: % is set by controls: 0 for no effect and ±100 for the full control effect; nearly all actives have a fitted effect of over 45% in size; luciferase light after 4 h
# Marburg entry inh – Marburg virus entry inhibition | Potency, µM (top dose mostly 37.8 µM), without a hit: top-dose activity change, negative = inhibition, usual class: inhibitors | AID 540276 | 300,000 tested, 1.8% active | Marburg virus pseudotyped entry inhibition, cell reporter; control for the full effect not named in the record; about a third of the inactives were read at about 46 µM; active = well fitted inhibition curve with a large enough effect; inconclusive = small, poorly fitted or top-dose-only effect, or effect the other way; inactive = flat fitted curve, though single readings scatter; tested in HEK293 cells; about a fifth of its hits are not listed in these tables; note: % is set by controls: 0 for no effect and ±100 for the full control effect; luciferase read-out
# RE007 growth inh – less growth of the S. pombe RE007 Vpr strain; S. pombe RE007 Vpr strain, BacTiter-Glo ATP luminescence, 24 h; control for the full effect not named in the record; Potency, µM (titrated, usually from 92.2 µM), without a hit: at the highest dose activity change, negative = less growth; 360,000 tested, 0.21% active; AID 651644; active = well fitted falling curve with a large enough effect; inconclusive = small, poorly fitted or top-dose-only effect; inactive = no such curve, though single readings can be large or run the other way;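 note: % is set by controls: 0 for no effect and ±100 for the full control effect; nearly all actives have a fitted effect of over 50% in size; the assay follows cell death caused by Vpr and the record does not say whether a fall means rescue or toxicity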
#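 Fission yeast strain RE007, carrying one chromosomally integrated HIV-1 vpr copy, was seeded at OD 0.01 in PMG+AL medium with 23 nL pinned compound. After 24 h at 30 °C and 99% humidity, viability was read by BacTiter-Glo luminescence.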
# Numbers without * were called inactive; ? = inconclusive; · = no result given; [ ] = another dose, or the depositor's remark. Unless noted, calls come from the whole dose curve; as a rule, active = well fitted curve in the direction sought with a large enough effect; inconclusive = small, poorly fitted or top-dose-only effect, or another doubt; inactive = no such curve, though single readings can be large; an effect the other way counts as inactive or inconclusive. Potency is the fitted concentration of half-maximal effect.
SMILES	Lassa entry inh	Marburg entry inh	RE007 growth inh	Cruzain noTriton	2A StopGo	SARS PLP yeast	NS1 inh	Cruzain Triton
CC(=O)c1c(C)oc2c1cc(NS(=O)(=O)c1c(C)cc(C)cc1C)c1ccccc12	-7.4%[46.1 µM]	·	·	3.2%	-2.4%	·	·	0.4%
CCOC(=O)c1ccc(N2C(=O)c3n[nH]c(-c4ccco4)c3C2c2ccc([N+](=O)[O-])cc2)cc1 (stereo not drawn)	23.1µM*	?	17.3%	?	?	-3.5%	20.6%	-6.2%
CCC(CC)c1nnc(NC(=O)C2CC(=O)N(CCc3ccc(F)cc3)C2)s1 (stereo not drawn)	20.4%[46.1 µM]	1.6%[46.1 µM]	-9.6%	·	-11.8%	21.1%	5.7%	·
CN(C)S(=O)(=O)c1cccc(NC(=O)c2ccc(NS(=O)(=O)c3cccs3)cc2)c1	-1.1%	-4.9%	5.1%	·	5.3%	0.9%	·	·
O=C(O)c1cccc2c1C(=O)N(CC1CCCO1)C2 (stereo not drawn)	-8.5%	11.6%[46.1 µM]	2.5%	·	-9.1%	2.3%	0.1%	·
CCOc1ccc(N2CC(C(=O)NNC(=O)c3ccc(Br)cc3)CC2=O)cc1 (stereo not drawn)	15.3%	-1.7%	12.6%	·	-8.0%	·	·	·
COc1cccc(/C=N/Nc2ncc(C(F)(F)F)cc2Cl)c1O	7.94µM*	0.794µM*	?	9.8%	-4.6%	·	-53.5%	-2.4%
O=C(c1cc([N+](=O)[O-])[nH]n1)N1CCSCC1	1.4%	12.7%	5.1%	·	3.3%	0.8%	0.1%	·
CC(=O)NC(CC(=O)NCCOc1ccccc1F)c1ccccc1 (stereo not drawn)	-7.0%[46.1 µM]	-25.2%[46.1 µM]	1.8%	·	12.9%	-0.3%	-0.7%	·
CCOC(=O)/C(C#N)=C\c1ccc(OC)c(OC)c1	·	10.5%[46.1 µM]	-8.4%	·	18.0%	0.5%	4.7%	·
CCCCn1c(O)c(/C=N/N2CCCCC2c2cccnc2)c(=O)[nH]c1=S (stereo not drawn)	9.8%[46.1 µM]	?	-15.1%	16.0%	-16.1%	20.7%	-3.0%	-6.6%
CC(=O)NC1=NN(C(C)=O)C(c2ccco2)S1 (stereo not drawn)	-17.6%	-0.1%	-3.9%	·	-10.5%	0.3%	0.2%	·
CCc1cc(C(=O)N2CCCC(N3CCN(c4cccc(C(F)(F)F)c4)CC3)C2)n(C)n1 (stereo not drawn)	·	·	-6.5%	·	?	-2.4%	-22.2%	·
Cc1ccc2nc(SCc3ccc([N+](=O)[O-])cc3)nc(C)c2c1	-1.4%	-12.0%	0.2%	-6.7%	6.5%	4.0%	-2.3%	-0.5%
CCOC(=O)c1sc(N2C(=O)C(O)=C(C(=O)c3ccc(C)o3)C2c2ccc(OC)c(OC)c2)nc1C (stereo not drawn)	-37.0%[46.1 µM]	?	-2.9%	·	-21.9%	1.3%	-12.8%	·
Cc1ccc(C(C)(C)C)c(OCC(=O)NCCc2nc3ccccc3[nH]2)c1	-18.7%[46.1 µM]	·	·	6.9%	?	·	·	-2.3%
COC(=O)c1cc(NC(=O)CC2NC3CCCCC3NC2=O)cc(C(=O)OC)c1 (stereo not drawn)	0.3%	10.8%	-5.1%	-5.1%	5.1%	1.1%	22.2%	-0.4%
Cc1ccc(N(C)S(=O)(=O)c2c(C)[nH]c(C)c2C(=O)N2CCCC2)cc1	·	·	-2.2%	·	0.3%	4.5%	-7.1%	·
O=C(COc1ccc(S(=O)(=O)N2CCCC2)cc1Cl)NCc1cccnc1	?	22.6%	6.4%	·	0.0%	4.8%	16.6%	·
CCOC(=O)C(NS(=O)(=O)c1ccccc1)(C(F)(F)F)P(=O)(OCC(C)C)OCC(C)C (stereo not drawn)	?	?	9.2%	?	-25.2%	-7.1%	5.4%	3.0%

# A run of entries from the list above, for reference:
SMILES	Lassa entry inh	Marburg entry inh	RE007 growth inh	Cruzain noTriton	2A StopGo	SARS PLP yeast	NS1 inh	Cruzain Triton
CC(=O)c1c(C)oc2c1cc(NS(=O)(=O)c1c(C)cc(C)cc1C)c1ccccc12	-7.4%[46.1 µM]	·	·	3.2%	-2.4%	·	·	0.4%
CCOC(=O)c1ccc(N2C(=O)c3n[nH]c(-c4ccco4)c3C2c2ccc([N+](=O)[O-])cc2)cc1 (stereo not drawn)	23.1µM*	?	17.3%	?	?	-3.5%	20.6%	-6.2%

# Next part.
SMILES	Lassa entry inh	Marburg entry inh	RE007 growth inh	Cruzain noTriton	2A StopGo	SARS PLP yeast	NS1 inh	Cruzain Triton
COCCCN1C(=O)C(=O)/C(=C(/O)c2ccc(S(=O)(=O)N3CCOCC3)cc2)C1c1ccc(Cl)cc1 (stereo not drawn)	·	·	-11.2%	·	-10.6%	1.4%	10.2%	·
COc1ccc(S(=O)(=O)N2CCC(C(=O)NCCc3c[nH]c4ccccc34)CC2)cc1	·	·	4.0%	·	-24.8%	2.0%	-1.9%	·
Cc1ccc(-n2c(O)c(C=NCc3ccccn3)c3ccccc3c2=O)cc1	-7.8%	-0.3%	5.0%	-8.2%	-21.5%	-9.4%	0.2%	-1.0%
CCOC(=O)c1ccc(N2CCN(c3ccc(F)cc3)CC2)c(NC(=O)Nc2ccc(CC)cc2)c1	-4.8%[46.1 µM]	·	·	-11.0%	-1.0%	·	·	-0.1%
Cc1nn(C)c(C)c1S(=O)(=O)N(CC(=O)NCCCOC(C)C)c1ccc(C(C)C)cc1	-17.5%	-4.1%	11.4%	?	5.5%	3.2%	1.1%	4.1%
Cc1cccn2c(CN(C)C3CCCc4ccccc43)c(C(=O)N3CCOCC3)nc12 (stereo not drawn)	-13.2%	·	-11.2%	·	?	-0.3%	-5.5%	·
CC1(C)CC2CC(C)(CN2C(=O)C23CCC(C)(C(=O)C2)C3(C)C)C1 (stereo not drawn)	-17.4%	-0.1%	2.2%	5.3%	-12.8%	10.0%	6.2%	0.8%
COc1ccc(C(CNC(=O)c2ccc(NS(=O)(=O)c3ccc(F)cc3)cc2)N2CCOCC2)cc1 (stereo not drawn)	2.7%	-6.0%	0.4%	·	-22.9%	9.3%	-3.7%	·
COc1ccccc1-c1ccc(=O)n(CC(=O)NC(C)(C)C)n1	9.6%	-0.1%	3.6%	-10.2%	15.7%	-0.1%	-0.2%	3.7%
Cc1ccc(C)c(N2CCN(CCCNC(=O)Cn3cccc3C(=O)c3ccccc3C)CC2)c1	?	?	6.3%	·	?	-4.2%	·	·
CCOc1ccccc1N1CC(c2nc3ccccc3n2CCOc2ccccc2OC)CC1=O (stereo not drawn)	-23.4%[46.1 µM]	?	·	?	-21.6%	·	·	-10.0%
O=C(NNC(=O)c1cc2c(s1)CCCC2)c1ccccc1	3.8%	11.5%	0.0%	?	53.6%[activator]	3.3%	-6.3%	-1.9%
CCC(C)NC(=O)CSc1nc2c(sc(=S)n2Cc2ccco2)c(=O)n1-c1ccccc1 (stereo not drawn)	?	-14.8%	-3.3%	-23.0%	?	0.1%	0.5%	-2.1%
COCCn1c(C)cc(C(=O)CN2CCCCC2)c1C	18.7%[46.1 µM]	2.7%[46.1 µM]	3.4%	·	5.5%	0.4%	·	·
CCCS(=O)(=O)c1c(S(=O)(=O)CCC)c2cc(C(C)(C)C)ccn2c1C(=O)c1ccc(OC)c(OC)c1	0.8%[46.1 µM]	?	·	7.4%	0.0%	·	·	2.8%
CCOC(=O)C1=C(CNCc2ccc(C)cc2)NC(=O)NC1c1cc(C)ccc1C (stereo not drawn)	0.5%	-26.9%	19.4%	?	?	?	14.0%	-3.2%
CC(C)(C)c1ccc(C(=O)c2c[nH]c(C(=O)NCc3cccs3)c2)cc1	-0.2%	?	-14.9%	?	-7.4%	-4.7%	10.8%	4.6%
O=C1NC(=O)N(Cc2ccco2)C(=O)/C1=C/c1cccn1CCOc1ccccc1Cl	-7.5%	-2.2%	22.5%	?	-18.2%	22.8%	?	-4.3%
Cc1nnc(C)n1/N=C/c1cccs1	-4.0%	15.3%	9.5%	-3.9%	-8.6%	-6.9%	3.6%	0.5%
CC1(C)CC(NC(=O)CC(c2ccccc2)c2ccccc2)CC(C)(C)N1	10.2%	15.7%	14.6%	-0.5%	-2.2%	10.8%	3.4%	1.8%
C=CCN(c1ccc(C(=O)Nc2ccc(C)cc2)cc1)S(C)(=O)=O	?	4.9%[46.1 µM]	5.9%	·	-23.2%	-0.8%	-3.9%	·
Cc1occc1C(=O)NNC(=O)c1ccc(S(=O)(=O)N(C)C)cc1	4.3%	?	1.9%	·	8.1%	-1.3%	·	·
CCOc1ccc(C(=O)CCN2CCCCCC2)cc1	?	-7.6%	15.8µM*	?	0.0%	-10.5%	-54.0%	-25.5%
CCOc1ccc(CNC(=O)c2cnc3sc(N(CC)CC)nn3c2=O)cc1	?	·	·	14.1%	-5.8%	·	·	-7.5%
C=CCC1(Cc2ccsc2)C(=O)NC(=O)NC1=O	14.4%[46.1 µM]	20.2%	-10.5%	·	-11.2%	·	·	·
Cn1cc(CN2CCCC(CO)(Cc3cccc(Cl)c3)C2)cn1 (stereo not drawn)	·	·	-16.2%	·	-21.7%	0.3%	9.8%	·
Cc1cc(S(=O)(=O)N2CCOCC2)ccc1OCC(=O)Nc1ccc(F)cc1	2.2%	18.3%[46.1 µM]	-7.7%	·	-24.1%	2.4%	0.0%	·
CC(=O)c1ccc(NC(=O)CN2C(=O)COc3ccc(Cl)cc32)cc1	·	·	6.4%	-5.5%	0.0%	2.8%	-38.3%	-4.2%
COc1ccccc1OCC(=O)Nc1ccc(S(=O)(=O)N(C)c2ccccc2)cc1	·	·	5.2%	·	-11.6%	-1.4%	17.8%	·
CN(Cc1ccccc1)Cc1ccccc1C(O)c1ccccc1 (stereo not drawn)	18.4%	?	-6.4%	·	0.0%	·	·	·
S=C(NC1CCCCC1)N(CCc1nc2ccccc2[nH]1)C1CCCC1	?	?	-4.9%	10.5%	-20.0%	7.8%	-13.3%	12.6µM*
